Screening results from PubChem.
Sa ugtP lethal: growth inhibition of ugtP-null S. aureus, primary screen, RN4220 ugtP deletion, OD600. 16 h; some inactives read as strong as hits. growth inhibition, % (test concentration not listed). hit rate 0.54% among 330,000;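 active means z-score under -3 and OD600 up to 0.15 on both plates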;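 further: plate controls were untreated wells for no effect and antibiotic for full effect; wells of about 80 µL received 100 nL stock; the first replicate is given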
PrP 5UTR inh: inhibition of PrP 5' UTR reporter expression; cell-based PrP 5' UTR mRNA reporter, plate reader; inhibition, % (no concentration beside the values); hit rate 0.35% among 340,000; AID 488862, 2010;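 active means every replicate at 50% or more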;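 further: 0 = median of the neutral control wells; tested in H4 reporter cells; numbers are from one replicate; inactives centre near -14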
RN4220 kill: growth inhibition of S. aureus RN4220, primary screen, OD600 | 16 h | hit rate 0.33% among 330,000 | inhibition, % (no concentration beside the values);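 active means z-score of -3 or lower and OD600 up to 0.18 on both plates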;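 further: plate controls were untreated cells for no effect and reference antibiotic for full effect; stock transfer was 100 nL into about 80 µL; one replicate is shown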
Autofluor counter: compound fluorescence in toxin protease inhibitor counterscreen | hit rate 3.1% among 360,000 | compound autofluorescence counterscreen, microsphere flow cytometry; hits give high values | fluorescence intensity (test concentration not listed);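 active means at least 3 SD above the mean of all compounds, about 16000 in these data; inconclusive means too few beads counted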;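 further: 100 nL of 1 mM stock went into each well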
Mtb hypoxia inh: PubChem AID 1159583 | M. tuberculosis hypoxia-regulated fluorescent reporter, fluorescence | fluorescence inhibition, % (no concentration beside the values) | hit rate 0.1% among 300,000;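 active means 35 to 45% if threefold the growth effect, above 45% if 1.5-fold the growth effect; inactive means the rest, general growth blockers included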;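 further: wells of about 50 µL received 100 nL stock; 0% = vehicle wells and 100% = reference inhibitor wells; whole bacteria with a GFP reporter of the hypoxia response; strong numbers were not always called active; many hits fall short of the cut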
BJeLR viability: MLPCN primary cell-based screen for lethality selective to Ras in HRASV12 cells | BJeLR (HRASV12) viability, CellTiter-Glo ATP luminescence, 48 h; reference of the scale not given here | inhibition, % (test concentration not listed) | hit rate 0.17% among 300,000 | AID 1554, 2009;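 active means replicate mean above 50%; inconclusive means above 50% but judged a plate artefact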;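 further: 50 nL library stock added to about 25 µL; numbers are from one replicate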
Mtb hypoxia inh growth: also measured in Mtb hypoxia inh; calls as there; growth inhibition, %; measured here: M. tuberculosis growth (absorbance);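 0% = vehicle and 100% = reference antibiotic; read after six days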
Numbers without * were called inactive; ? = inconclusive; . = not tested or not shown.

SMILES	Sa ugtP lethal	PrP 5UTR inh	RN4220 kill	Autofluor counter	Mtb hypoxia inh	Mtb hypoxia inh growth	BJeLR viability
COc1ccc(C2C3CCCCC3(O)CCN2C(=O)c2cccs2)cc1 (stereo unspecified)	11	-9	3.2	2112	2	-9	10
CCc1cccc(CC)c1N1C(=O)c2cc(N3CCOCC3)c([N+](=O)[O-])cc2C1=O	10	-7	6.5	2077	6	7	2
COc1ccc(-c2cc(C)no2)cc1S(=O)(=O)Nc1cccc(C)c1	-3	3	7.6	6018	6	1	1
Cc1nonc1OCCNCCNc1ccc([N+](=O)[O-])cc1Cl	4	-5	2.8	3980	3	2	8
O=C1ON=C(c2ccc([N+](=O)[O-])cc2)/C1=C/c1ccccc1O	6	-11	3.2	3519	4	-2	0
CCOC(=O)c1cc2c(ccn2C)n1Cc1ccc(Cl)cc1	10	-9	-3.2	3037	10	5	-5
COc1ccc(Cc2nc(C(=O)Nc3ccc(F)cc3)cs2)cc1	25	-10	-1.5	3469	5	8	7
CCc1cccc(OCC(=O)N(C)CC(=O)Nc2cccc(F)c2)c1	1	-42	1.8	5704	2	0	3
CCCCC(CCC(=O)Nc1cccc([N+](=O)[O-])c1)C(=O)O (stereo unspecified)	7	-24	1.4	4555	20	0	-1
Nc1nonc1-n1nnc(C(=O)NN=Cc2ccccc2Cl)c1CSc1ccccc1	-5	.	4.5	.	-1	-3	.
CCOc1ccc(C(=O)NCC(=O)OCC(=O)Nc2ccccc2OC)cc1	5	-31	-0.8	3174	.	.	3
CCOC(=O)c1c(COc2ccccc2)oc2ccc(O)cc12	12	.	1.5	.	13	8	-9
COCC(=O)c1[nH]c2ccccc2c1C	3	-10	9.9	3509	.	.	0
COC(=O)c1ccc(Cl)c(NC(=O)CN(c2ccccc2)S(=O)(=O)c2ccc(OC)cc2)c1	4	-14	4.5	2220	10	0	3
N#C/C(=C(/O)COc1ccc(Br)cc1)c1nnc2n1CCCCC2	3	-29	3.1	4217	15	10	0
COc1ccc(NC(=O)NCCN2CCN(c3ccc(C)cc3)CC2)c(Cl)c1	2	-20	3.2	3769	3	12	1
CC(=O)CC(C)(C)S(=O)(=O)c1ccc(NC(C)=O)cc1	-1	-3	2.6	8661	1	-6	-5
O=C(NC(=O)c1ccccc1N1CCCCC1)Nc1ccc(Br)cc1	5	-7	-1.1	5970	-3	-6	14
Cc1cccc(N(C)C(=O)c2cc(S(=O)(=O)N3CCc4ccccc43)cn2C)c1	11	8	8.2	6336	1	1	5
CCOC(=O)c1ccccc1-n1c(C)cc(C2N=C(N)Nc3nc4ccccc4n32)c1C (stereo unspecified)	-13	-5	6.1	15382	7	-1	0
O=C(NCc1cccs1)c1cc(-c2ccccc2)on1	1	-101	1.0	6656	-1	9	-15
CNc1ccc(Br)cc(C(=O)/C=C/c2ccc3c(c2)OCO3)c1=O	-4	-15	0.2	3091	10	8	0
CCc1cc(=O)[nH]c(SCC(=O)N2CCOCC2)n1	-3	8	-0.2	?	-12	5	-10
COc1ccc(NC(=S)N2CCOCC2)c(OC)c1	4	-11	1.2	2450	15	4	2
CC(C)CNC(=O)COC(=O)c1c2c(nc3ccccc13)/C(=C\c1cccs1)CC2	-13	-47	2.2	3820	1	6	.
N#CCCn1cc(C=NO)c(-c2ccc(-c3ccccc3)cc2)n1	18	.	4.4	.	2	5	.
O=C1CCC(=O)N1c1ccc(-c2nc3ccccc3s2)cc1	-2	-42	0.9	2423	9	5	4
COc1ccc(CN(CCc2ccccc2)Cc2ccccc2)cc1OC	19	-16	4.9	3514	1	-6	0
CN(CC(=O)Nc1ccccc1Cl)C(=O)c1ccc(Cl)c(S(=O)(=O)N2CCCCCC2)c1	1	-11	4.3	3838	9	9	.
Cc1ccc(NC(=O)c2cccs2)cc1	13	-51	3.7	5795	6	-1	-1
Cc1cccc(NC(=O)Cc2ccc(-c3ccccc3)cc2)n1	2	-9	5.6	5313	-1	1	1
O=Cc1cccn1-c1nccc(-c2ccco2)n1	4	-10	1.1	4260	-1	8	-4
COC(=O)c1ccccc1NC1OC(=O)c2ccccc21 (stereo unspecified)	-2	-5	34	3646	.	.	5
COc1ccc(CNc2ncnc3c2[nH]c2cc(OC)c(OC)cc23)cc1	8	-27	8.3	5678	5	6	10
CC(SC1=NCCN1S(=O)(=O)c1ccc(F)cc1)c1ccccc1 (stereo unspecified)	-5	-19	2.7	5303	1	4	1
N#Cc1ccc(C(=O)N2CCN(S(=O)(=O)c3ccc(Br)s3)CC2)cc1	0	-16	1.0	4088	10	4	-14
COc1ccccc1/C=N/N1CCN(c2ccc(Cl)cc2)CC1	.	-13	.	3626	.	.	0
CCc1ccc(CN2CCCC(CNS(=O)(=O)c3ccc(OC)cc3)C2)cc1 (stereo unspecified)	6	-14	2.1	3834	6	10	14
Cc1c(/C=N/Nc2nc3ccccc3[nH]2)c2ccccc2n1C	.	-35	.	3033	.	.	65*
COC(=O)C1=C(C)N(Cc2ccccc2)C(=NCc2ccc(OC)cc2)N[C@H]1c1cccc(F)c1	.	-20	.	4130	.	.	13
S=C(NCc1ccccn1)Nc1ccc(Cl)cc1Cl	3	-19	6.7	2907	10	6	-17
CCn1cc(C2C(C(=O)Nc3ccc(Br)cn3)=C(C)NC3=C2C(=O)CCC3)c(C)n1 (stereo unspecified)	8	-24	5.5	2358	2	13	9
O=P(O)(Cc1ccccc1)Cc1ccccc1	13	-7	3.8	3721	-5	-4	9
CCOC(=O)C1=C(C)NC(C)=C(C(=O)OCC)C1C(=O)OCC(=O)NCc1ccccc1	-2	-25	2.3	3532	13	12	.
Fc1ccc(C2CC(c3ccco3)n3ncnc3N2)cc1 (stereo unspecified)	-6	3	3.6	6165	.	.	-4
O=C(CN1CCN(c2ccc(F)cc2)CC1)N(C1CCCC1)C1CCS(=O)(=O)C1 (stereo unspecified)	6	-16	3.2	3917	21	11	.
Cc1csc(SC(C)C(=O)NC2CCCCC2C)n1 (stereo unspecified)	-2	-13	0.7	?	-3	4	1
CCN1CCN(c2nc(-c3ccccc3)nc3ccccc23)CC1	11	0	-4.1	2524	12	3	5
COc1ccc(CNc2nc(S(=O)(=O)c3ccccc3)c(Cl)s2)cc1OC	1	-10	1.2	2237	5	-3	-2
COc1ccc(CNc2nc3nc4c(c(=O)n3[nH]2)CCC4)cc1	-2	-20	1.2	3055	.	.	1
COc1ccc(C2=NOC(C3(S(=O)(=O)c4ccccc4)CC(O)C3)C2)cc1 (stereo unspecified)	-16	-13	1.2	4218	3	9	-2
C=C(C)C1CC=C(C)C(=NNC(=O)CNc2ccc(C)cc2C)C1 (stereo unspecified)	6	.	4.4	.	11	4	.
CCCCn1c(=O)c(CC(C)=O)nc2ccccc21	16	-21	4.7	2496	17	12	-24
Cc1ccc(C=NNc2ccnc3cc(Cl)ccc23)c(C)c1	101*	.	99*	.	7	2	.
COc1ccc(CNC(=O)C2CCN(C(=O)[C@@H](CC(C)C)NC(=O)OC(C)(C)C)CC2)cc1	2	-2	-20	2883	0	6	6
O=C(NN=Cc1ccc(Cl)c([N+](=O)[O-])c1)c1cc(-c2ccc3c4c(cccc24)CC3)n[nH]1	4	.	-10	.	14	-5	.
COC(=O)C(=Cc1ccccc1[N+](=O)[O-])C(=O)OC	8	-10	1.0	3938	17	1	21
O=C1NC2(CCCCCC2)C(=O)N1Cc1ccc(Cl)cc1Cl	-2	4	2.2	6058	-5	2	-12
Cc1cc(O)cc(=O)n1Cc1ccccc1	6	-23	3.5	5887	3	15	-2
CCSc1nnc(NC(=O)C2CCCCC2)s1	1	-22	19	9479	3	4	-2

Remaining list, next part.
SMILES	Sa ugtP lethal	PrP 5UTR inh	RN4220 kill	Autofluor counter	Mtb hypoxia inh	Mtb hypoxia inh growth	BJeLR viability
COc1ccc(CCC(=O)N2CCC3(CC2)OCCO3)cc1	11	-24	4.1	16327*	18	3	3
O=C(N/N=C/c1ccc([N+](=O)[O-])cc1)c1cccnc1	.	-31	.	3543	.	.	-1
CN(C)c1ccc(C=Nc2ccc(N(C)C)cc2)cc1	5	-63	0.6	1945	.	.	7
O=C(NN=Cc1ccccc1O)C1CC1	2	-25	2.8	3598	14	14	.
COc1ccccc1NS(=O)(=O)c1cc(NC(=O)c2cccs2)ccc1N1CCCC1	-10	-31	8.1	2092	12	5	-3
COc1ccc(NC(=O)Cn2c(=O)sc3ccccc32)c(OC)c1	17	6	4.7	4363	.	.	-8
Cc1c(C(=O)N2CCOCC2)c(S(=O)(=O)N2CCN(c3ccc(Cl)cc3)CC2)c(C)n1C	12	-24	2.1	5186	16	8	-8
CC(=O)c1ccc(NC(=S)N2CCN(CCO)CC2)cc1	13	-14	3.1	4119	10	-4	-2
CC(=O)Cc1ccccc1OC(=O)c1ccco1	-4	-4	2.4	7978	10	13	2
CCCCN(C(=O)c1cccc(S(=O)(=O)N2CC(C)OC(C)C2)c1)c1c(N)n(CC(C)C)c(=O)[nH]c1=O (stereo unspecified)	6	-2	2.4	6264	4	0	-20
Cc1cc(Nc2cc(Cl)cc(Cl)c2)nc(N)n1	-14	-28	3.3	5305	6	9	3
CN(CC(=O)Nc1ccc(F)cc1)C(=O)CN1C(=O)NC2(CCCc3ccccc32)C1=O (stereo unspecified)	-2	-15	-0.1	4477	7	-2	9
C=CCOc1c(OC)cc(/C=N/Nc2cccc(C(=O)O)c2)c(Br)c1Br	.	-48	.	1955	.	.	-3
COc1ccccc1/C=C/C=N/n1c(-c2cc(C)[nH]n2)n[nH]c1=S	.	-7	.	1954	.	.	12
COc1cccc(CN2CCN(C(=O)c3oc4c(F)cccc4c3C)CC2=O)c1	10	-31	1.7	3305	2	1	3
CON=C(CS(=O)Cc1ccc(Cl)cc1)c1ccc(Cl)cc1 (stereo unspecified)	-9	.	5.8	.	17	6	.
COc1ccc(CN2CCn3ncc(C(=O)Nc4cccc(C)c4)c3C2=O)cc1	4	-9	-3.1	3636	.	.	2
O=c1[nH]nc(N2CCOCC2)c(=O)[nH]1	-1	-42	3.2	4871	9	11	-4
O=C(/C=C/c1ccc(Cl)c([N+](=O)[O-])c1)NCc1cccnc1	.	-10	.	3923	.	.	1
CCOc1ccc(C(C)(C)C)cc1S(=O)(=O)n1nc(C)cc1C	4	-11	13	4256	11	6	3

Just Mtb hypoxia inh and PrP 5UTR inh, for some of the entries so far:
SMILES	Mtb hypoxia inh	PrP 5UTR inh
CC(=O)CC(C)(C)S(=O)(=O)c1ccc(NC(C)=O)cc1	1	-3
O=C(NN=Cc1ccc(Cl)c([N+](=O)[O-])c1)c1cc(-c2ccc3c4c(cccc24)CC3)n[nH]1	14	.
COC(=O)c1ccc(Cl)c(NC(=O)CN(c2ccccc2)S(=O)(=O)c2ccc(OC)cc2)c1	10	-14

The main list resumes, starting 5 compounds before the break.
SMILES	Sa ugtP lethal	PrP 5UTR inh	RN4220 kill	Autofluor counter	Mtb hypoxia inh	Mtb hypoxia inh growth	BJeLR viability
CON=C(CS(=O)Cc1ccc(Cl)cc1)c1ccc(Cl)cc1 (stereo unspecified)	-9	.	5.8	.	17	6	.
COc1ccc(CN2CCn3ncc(C(=O)Nc4cccc(C)c4)c3C2=O)cc1	4	-9	-3.1	3636	.	.	2
O=c1[nH]nc(N2CCOCC2)c(=O)[nH]1	-1	-42	3.2	4871	9	11	-4
O=C(/C=C/c1ccc(Cl)c([N+](=O)[O-])c1)NCc1cccnc1	.	-10	.	3923	.	.	1
CCOc1ccc(C(C)(C)C)cc1S(=O)(=O)n1nc(C)cc1C	4	-11	13	4256	11	6	3
CS(=O)(=O)N1CCN(CC(=O)NC2CCCC2)CC1	4	-14	-0.6	3091	7	2	-3
COC(=O)NC(Nc1sc2c(c1C(N)=O)CCCC2)(C(=O)OC)C(F)(F)F (stereo unspecified)	-1	-37	1.8	8706	-2	-20	-6
CCOC(=O)c1nc(Nc2cc(C)cc(C)c2)c2ccccc2n1	-26	-13	-0.8	2287	6	1	-9
CCN1CCN(C(=S)Nc2cccc(C(F)(F)F)c2)CC1	6	-8	7.2	7909	3	0	1
Cc1ccsc1C(=O)C1CCCN(Cc2cnn(C)c2)C1 (stereo unspecified)	-1	-30	2.4	2682	10	6	1
Cc1ccc(S(=O)(=O)N(CC(=O)NN=Cc2cccs2)c2cccc3cccnc23)cc1	4	.	2.8	.	7	4	.
COC(=O)C(Cc1ccc(OC(=O)c2ccc(C)cc2)cc1)N1Cc2ccccc2C1=O (stereo unspecified)	24	-40	4.1	2656	.	.	9
Cc1cc(C)c(C(=O)N2CCCC(Nc3ccc(C)c(C)c3)C2)o1 (stereo unspecified)	7	-2	4.9	6006	8	12	0
